Screening data (PubChem BioAssay)
VDR inh: Inhibitors of the vitamin D receptor (VDR): qHTS; Potency, µM, without a hit: max response, negative = inhibition, hits mostly inhibitors; VDR-SRC2-3 peptide fluorescence polarization, 2 h; Vitamin D3 receptor (Homo sapiens), P11473; hit rate 0.93% among 400,000; active = well fitted inhibition curve with a large enough effect; inconclusive = small, poorly fitted or top-dose-only effect, or another doubt; inactive = no such curve, though single readings can be large or run the other way; note: series mostly up to about 120 µM
Target sequence (P11473 whole entry, looked up): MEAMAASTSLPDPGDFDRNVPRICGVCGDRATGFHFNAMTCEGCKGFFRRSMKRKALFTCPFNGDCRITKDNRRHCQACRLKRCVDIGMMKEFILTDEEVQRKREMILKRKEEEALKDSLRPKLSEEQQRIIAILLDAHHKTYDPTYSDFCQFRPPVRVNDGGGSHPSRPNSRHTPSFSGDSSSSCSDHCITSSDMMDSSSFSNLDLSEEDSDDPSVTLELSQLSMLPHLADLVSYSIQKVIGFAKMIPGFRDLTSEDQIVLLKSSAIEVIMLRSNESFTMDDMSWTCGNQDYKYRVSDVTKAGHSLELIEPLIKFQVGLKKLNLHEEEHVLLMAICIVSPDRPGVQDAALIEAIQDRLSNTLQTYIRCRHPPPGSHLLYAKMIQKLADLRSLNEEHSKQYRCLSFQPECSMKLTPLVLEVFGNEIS
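Fluorescence polarization assay of small-molecule disruption of VDR binding to coregulator peptide SRC2-3. Compounds and controls pin-transferred, then read after 2 h incubation at ambient room temperature.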
* marks the source's active call; other numbers are inactive results; u = inconclusive; & = joins results of further samples; [ ] = another dose, or the depositor's remark. % is set by controls: 0 for no effect and ±100 for the full control effect; potency is the fitted concentration of half-maximal effect.

VDR inh	compound
2.9%	C=CCn1c(CCNC(=O)c2cccs2)nnc1SCC(=O)Nc1cccc(Cl)c1C
-3.9%	COc1cc(C(=O)NC2CC(C)(C)CC(C)(C)C2)ccc1OC1CCN(C(C)=O)CC1
-4.2%	CCc1nc2c(cnn2-c2ccc(C)cc2)c(=O)n1-c1ccc(C)cc1
5.3%	CCN(C(=O)CSc1ncccn1)c1cccc2ccccc12
-0.5%	COC(=O)c1cn(NC(=O)Cc2ccc(OC)c(OC)c2)c(=O)c2ccccc12
-21.2%	O=C(NCCc1ccccc1)C1CCC(=O)N(CCCN2CCCC2=O)C1 (stereo not drawn)
u	Cn1cnnc1Sc1ccc(/C=C/C(=O)c2ccc(O)cc2)cc1[N+](=O)[O-]
u	CCOC(=O)c1cc(C#N)c(SCC(=O)c2cc(C#N)c(SC)nc2C)[nH]c1=O
-16.0%	O=C1c2ccccc2C(=O)N1CCc1ccccn1
10.4%	CCOC(=O)C1CCN(C(=O)C(C)c2ccc([N+](=O)[O-])cc2)CC1 (stereo not drawn)
0.5%	Cc1ccccc1OCCCCn1c(C2CC(=O)N(c3ccccc3Cl)C2)nc2ccccc21 (stereo not drawn)
-0.2%&0.1%	Cc1ccc(C2CC(=O)Oc3cc(O)ccc32)cc1 (stereo not drawn)
8.2%	O=C(CSC1=Nc2ccccc2C2=NC(CC(=O)NCc3ccco3)C(=O)N12)NCc1ccco1 (stereo not drawn)
14.3%	CC(=O)N1N=C(c2ccncc2)CC1c1ccccc1O (stereo not drawn)
-10.3%	CN1CCN(C(=O)c2ccc3c(c2)N(Cc2c(F)cccc2Cl)C(=O)c2ccccc2S3)CC1
17.5%	O=C(Cc1ccccc1)NNC(=O)c1ccc(Br)o1
5.3%	COc1ccccc1C1C=C(c2ccccc2)Nc2nnnn21 (stereo not drawn)
10.2%	N#Cc1cccc(S(=O)(=O)N2CCN(c3nc(-c4cccs4)nc4ccccc34)CC2)c1
4.9%	COCCc1nn2c(=O)cc(COC(=O)c3ccc(OC)c(OC)c3)nc2s1
2.4%	CCN(CC)C(=O)/C(=C/c1ccc(F)cc1)NC(C)=O
-8.9%	O=C(Cc1ccc([N+](=O)[O-])cc1)Nc1ccc(O)cc1C(=O)O
5.2%	Cc1ccnc(NC(=O)CCC(=O)N(CC(=O)NC2CCCCC2)c2ccc3c(c2)OCO3)c1
4.6%	CC(C)c1ccc(NC2CCCN(C(=O)c3ccnc(Cl)c3)C2)cc1 (stereo not drawn)
-14.3%	CCN(CC(=O)NCc1cccs1)C(=O)c1ccc(S(=O)(=O)Nc2ccccc2Cl)cc1
13.1%	O=C(NNC(=O)c1cccc2ccccc12)c1ccccc1O
1.7%	CCOC(=O)C1=C(c2ccccc2)c2cc(OC)ccc2OC1C(=O)OCC (stereo not drawn)
-8.0%	Cc1cc(F)ccc1S(=O)(=O)Nc1ccc(C(=O)N2CCCCC2)cc1
0.6%	CC(=O)c1ccc(S(=O)(=O)N2CCN(C(=O)CN3C(=O)NC4(CCCC4)C3=O)CC2)cc1
2.3%	CCCCn1c(SCC(=O)Nc2oc(C)c3c(C)n[nH]c(=O)c23)nc2cc(S(N)(=O)=O)ccc21
2.8%	CCOC(=O)c1ccccc1NC(=O)c1nn(-c2ccc(OC)c(Cl)c2)c(=O)c2c1c1ccccc1n2C
-8.0%	CCCNC(=O)COC(=O)c1ccc(N2CCCC2)c([N+](=O)[O-])c1
19.9%	COc1ccc(C(C(=O)NC2CCCCC2)N(C(=O)c2sc(C)nc2C)c2ccccc2C)cc1 (stereo not drawn)
-0.1%	Cc1ccc(S(=O)(=O)N(CC(=O)N(C(C)C)C(C)C)C(=O)N2CCN(C)CC2)cc1
0.8%	CCN1C(=O)/C(=C\c2cccs2)C(C(=O)OC)=C1C
5.9%	Cc1ccc(NC(=O)NCCN2CCN(c3ccccc3)CC2)cc1Cl
8.3%	O=C(CCNS(=O)(=O)c1cccc(C(F)(F)F)c1)NC1CC1
-1.5%	COc1ccc2[nH]cc(CCO)c2c1
-1.4%	Cc1ccc(C)c(-c2csc(-c3c(N)c(C(=O)c4ccc5c(c4)OCO5)n4ccccc34)n2)c1
-18.1%	CCOC(=O)c1ccc(NC(=O)c2ccc3c(c2)OCO3)cc1
-9.8%	CCc1ccc(-n2c(=O)c3c(C)c(C(=O)N(C)C)sc3n(CC(=O)NCC3CCCO3)c2=O)cc1 (stereo not drawn)
11.7%	CN(C)c1ccc(C(=O)OCc2cc(=O)n3ccsc3n2)cc1
-11.1%	Cc1ccccc1OCCn1c(C)nc2ccccc21
6.2%	COc1ccccc1NC(=O)NCC(=O)Nc1c(C)cccc1C
-15.8%	CCCC(=O)n1nc(-c2ccco2)nc1SCc1ccccc1
-17.1%	COC(=O)c1ccc(N=Cc2c(C(F)(F)F)[nH][nH]c2=O)cc1
7.1%	COC(=O)C(=Nc1ccccc1)/C(C(=O)C(=O)N(C)c1ccccc1)=C(\O)c1ccccc1
3.2%	Cc1noc(C)c1S(=O)(=O)N1CCN(c2ccc([N+](=O)[O-])cc2)CC1
-7.3%	CCCCn1c(N)c(N(CC(C)C)C(=O)CCCc2nc3ccccc3s2)c(=O)[nH]c1=O
12.9%	Cc1ccc2[nH]nc(C(=O)N3CCCC(C(=O)c4ccc(Cl)cc4)C3)c2c1 (stereo not drawn)
-4.0%	COc1ccc(OCC(O)CNC(=O)c2ccc(OC)cc2)cc1 (stereo not drawn)
-13.8%	CCc1ccc2c(c1)C(c1ccc([N+](=O)[O-])cc1)=NNC(c1ccc(F)cc1)=N2
u	CC(C)=CCC/C(C)=C/CNC(=O)C[C@H]1C[C@H](C(=O)N2CCOCC2)[C@@]2(CCC3CCCC3)c3[nH]c4cc(-c5ccco5)ccc4c3CCN2C1=O
-4.9%	CCn1c(N)c(C(=O)NCc2cccnc2)sc1=S
-9.8%	CCC(NC(=O)CCCc1ccccc1)c1ccccc1 (stereo not drawn)
u	S=c1[nH]nc(-c2ccco2)n1/N=C/C(Cl)=C/c1ccccc1
-3.4%	CCOC(=O)[C@@H]1[C@H]2COc3ccccc3[C@H]2N2C(=O)N(c3ccc(F)cc3)C(=O)[C@]12C
-2.0%	COc1cc(NC(=O)c2cccc3c2C(=O)N(Cc2cccnc2)C3)cc(OC)c1OC
-29.4%	Cc1ccc(/C(N)=N/OC(=O)c2cccs2)cc1
-3.4%	COc1ccc(C(O)c2nccn2Cc2ccccc2)cc1 (stereo not drawn)
4.1%	CS(=O)(=O)N1CCN(c2ccc(NC(=O)c3cc4ccccc4o3)cc2)CC1

3 of the compounds above, as labelled records.
Cc1ccc(/C(N)=N/OC(=O)c2cccs2)cc1
  VDR inh = -29.4%

COc1ccc(C(O)c2nccn2Cc2ccccc2)cc1 (stereo not drawn)
  VDR inh = -3.4%

CS(=O)(=O)N1CCN(c2ccc(NC(=O)c3cc4ccccc4o3)cc2)CC1
  VDR inh = 4.1%

Following part:
VDR inh	compound
-6.2%	CC1CCC2(CC1)NC(=O)N(CC(=O)N1CCN(S(=O)(=O)c3ccc4c(c3)CCC4)CC1)C2=O (stereo not drawn)
8.6%	C=CCNC(=S)Nc1ccc(Br)cc1F
-6.0%	COc1cccc(-c2ccc(SCC(=O)N3CCN(c4ccccc4)CC3)nn2)c1
-3.3%	CCOC(=O)c1ccc2ncc(C(=O)OCC)c(Nc3ccc(C)c(Br)c3)c2c1
2.7%	COc1ccc(OC)c(NC(=O)CN2C(=O)CCc3cc(S(=O)(=O)N4CCCCC4)ccc32)c1
-2.6%	Cc1cc(C(=O)C(=O)NC(C)C)c(C)n1-c1ccc([N+](=O)[O-])cc1
-3.3%	Cc1ccc(NC(=O)C2CCCN(c3ncccn3)C2)c(C)c1 (stereo not drawn)
-0.7%	CS(=O)(=O)N(CC(=O)N1CCCC1)c1cccc(F)c1
22.7%	CC(C)C(=O)Nc1ccc(C(=O)NNC(=O)C(c2ccccc2)c2ccccc2)cc1
-15.2%	COc1ccc(CCN2CCCn3c2nc2c3c(=O)n(Cc3ccccc3F)c(=O)n2C)cc1OC
1.2%	CCc1cc2c(-n3nc(C)cc3C)ncnc2s1
-19.8%	O=C(O)CSCc1c(F)cccc1Cl
-6.2%	COC(=O)[C@H](Cc1ccc(O)cc1)NC(=O)Cn1cnc(C(=O)Nc2ccc(C)c(C)c2)n1
7.3%	CCc1ccc(C(=O)NNC(=O)c2cccc(N3C(=O)CCC3=O)c2)cc1
2.1%	COc1ccc(CCNC(=O)C2CCN(S(=O)(=O)c3ccc4nc5c(c(C(=O)O)c4c3)CCCC5)CC2)cc1OC
0.3%	O=C(NC(=S)Nc1cccc(NC(=O)c2ccccc2Cl)c1)c1cccs1
0.2%	Cc1nn(CC(=O)NCc2ccc(N(C)C)cc2)c(=O)c2c(C)n(-c3ccc(Cl)cc3)nc12
3.4%	O=C(COc1ccc(Cl)cc1Cl)NNC(=S)NC(=O)c1ccco1
1.3%	Oc1c(C(c2ccc(F)cc2)N2CCCC2)sc2nc(-c3ccco3)nn12 (stereo not drawn)
73.4%[activator]	COc1ccc(NC(=O)COc2ccc(N(C)S(=O)(=O)c3ccc(Cl)cc3)cc2)cc1
-16.5%	CCOC(=O)C1CCCN(C(=O)CCc2ccccc2)C1 (stereo not drawn)
9.0%	CCOC(=O)c1ccccc1NC(=O)Cn1c(=O)n(-c2cccc(C)c2)c(=O)c2c1c1cc(C)ccc1n2C
9.6%	O=C(CSc1nnc(-c2ccco2)n1-c1ccccc1)NCc1ccc2c(c1)OCO2
-5.9%	Cc1ccccc1OCCSc1nc(N(C)C)nc(N(C)C)n1
21.3%	O=C(Cc1ccccc1)N1O[C@H]2C=C[C@@H]1CC2
7.7%	CC(=O)c1ccc(NC(=O)CSc2nccn2Cc2ccco2)cc1
-12.4%	Cn1cc(Cl)c(-c2n[nH]c(=S)n2C2CCCCC2)n1
-6.1%	CCOC(=O)c1sc(NC(=O)CN2C(=O)c3cccc4cccc(c34)C2=O)nc1C
-19.8%	Cc1cc(C)cc(NC(=O)c2cccc(NC3=NC4CS(=O)(=O)CC4S3)c2)c1 (stereo not drawn)
14.9%	Cc1ccc(OCC(=O)Nc2ccc3nc(SCC(=O)N4CCOCC4)sc3c2)cc1
-12.4%	O=C1CNCc2[nH]c3ccccc3c2N1c1ccccc1
-13.2%	O=C(CSc1nccn1-c1ccc(F)cc1)Nc1cccc2ccccc12
-3.8%	CC[C@]12c3[nH]c4ccccc4c3CCN1C(=O)C(CC(=O)NC/C=C(\C)CCC=C(C)C)C[C@@H]2C(=O)N1CCN(C(=O)C2CC2)CC1 (stereo partly drawn)
-0.4%	CCOc1ccc(-n2c(C)nc3c(cnn3-c3ccc(Cl)cc3)c2=O)cc1
15.7%	Cc1cc(C)c2c(NC(=O)C3CC3)nn(C)c2n1
-3.3%	COCCNC(=O)c1c[nH]c2ccc(S(=O)(=O)N3CCC4(CC3)OCCO4)cc2c1=O
-8.3%	CC(=NN(Cc1ccccc1)c1ccccc1)c1ccccc1
2.3%	CCOC(=O)c1nc(N)c(=O)n(-c2ccccc2)n1
0.3%	Cc1cccc(N2CCN(C(=O)c3ccc(CNc4c(N5CCC(C)CC5)c(=O)c4=O)cc3)CC2C)c1 (stereo not drawn)
-0.2%	Cc1ccccc1C(=O)OC1CCCN(C)C1 (stereo not drawn)
u	CC1=NN(c2ccccc2)C(=O)/C1=C\N1CC(C)OC(C)C1 (stereo not drawn)
-14.3%	O=C(N/N=C/c1ccc(OCCCF)cc1)c1ccc(C(F)(F)F)cc1
-10.1%	Cn1c(=O)oc2cc(S(=O)(=O)Nc3ccc(Cl)cc3)ccc21
-18.1%	O=C(NNS(=O)(=O)c1ccccc1)c1cnn(-c2ccc(Cl)cc2)c1C(F)(F)F
-15.6%	CC(C)Sc1nc(NCc2ccco2)c2c3c(sc2n1)COC(C)(C)C3
18.8%	Cc1ccc2oc(=O)c(/C=C(\O)C(C)(C)C)nc2c1
-1.3%	CC(=O)N1CCN(S(=O)(=O)c2c(C)n(C)c(=O)n(C)c2=O)CC1
u	O=C(Nc1ccncc1)c1cc2ccccc2cc1O

Three entries already listed, ordered by length of the SMILES, low to high.
VDR inh	compound
1.2%	CCc1cc2c(-n3nc(C)cc3C)ncnc2s1
73.4%[activator]	COc1ccc(NC(=O)COc2ccc(N(C)S(=O)(=O)c3ccc(Cl)cc3)cc2)cc1
-13.8%	CCc1ccc2c(c1)C(c1ccc([N+](=O)[O-])cc1)=NNC(c1ccc(F)cc1)=N2

Continued.
VDR inh	compound
-6.2%	Cc1ccc2nc(-c3ccccc3)oc(=O)c2c1
11.2%	COc1cccc(CNc2ccc(Br)cn2)c1O
-15.4%	CN(CC(=O)Nc1ccc(N2CCOCC2)cc1)C(=O)CSc1ccc(Br)cc1
3.2%	Cc1ccc(NC(=O)CCCC(=O)O)c(-c2nc3ccccc3[nH]c2=O)c1
-12.0%	Cn1c(=NC(=O)CS(=O)(=O)c2ccc(F)cc2)sc2ccccc21
-11.6%	CCO[C@@H]1OC(C(=O)NCc2ccccc2)=C[C@H](c2ccc(Br)cc2)[C@H]1CCCO
u	CC(=O)NCCNc1ncncc1-c1ccccc1C
8.4%	O=C(CSc1nc2ccccc2s1)N1CCOCC1
5.6%	O=C(NCc1ccc2c(c1)OCO2)c1n[nH]c(=O)c2ccccc12
-25.1%	Fc1ccc(C2Nc3cccc4cccc(c34)N2)cc1
-8.5%	COc1ccc([C@H]2CC(=O)C=C(c3cc(Cl)cc(Cl)c3)C2)cc1
-3.0%	CS(=O)(=O)N1CCCC(C(=O)NCCCN2CCC(Cc3ccccc3)CC2)C1 (stereo not drawn)
79.4µM*	Oc1ccc(CN2CCCc3ccccc32)c2cccnc12
18.0%	COc1ccc(CNCC(O)(c2ccc(F)cc2)c2ccc(F)cc2)cc1OC

Not all compounds are listed. The share of hits here may be higher or lower than overall.
